Menin-MLL FL inh – inhibitors of human menin-MLL interaction, wild-type MLL peptide; Fluorescence polarization, fluorescein-MLL peptide displacement from menin; FP activity change, % at 61.4 µM; 290,000 tested, under 10 active; AID 1766; inconclusive = falling polarisation curve, or a change in total fluorescence; inactive = total fluorescence flat and polarisation flat or rising; no compound was filed as active; the % refers to the polarisation; negative = inhibition;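 note: % of control where 0% means no effect; inhibitors lower the polarisation; unlabelled MLL peptide was the positive control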
gsp agonist – activates gsp, the McCune-Albright syndrome mutation; 0.13% of 340,000 active; Potency, µM (doses to about 76.9 µM), for the others: at the highest dose activation (cAMP increase), usual class: activators; AID 624287; gsp mutant cells, cAMP HTRF, 30 min; control for the full effect not named in the record; active = well fitted activation curve with a large enough effect; inconclusive = small, poorly fitted or top-dose-only effect, or another doubt; inactive = no such curve, though single readings can be large or run the other way; cell line not stated here;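 note: phosphodiesterase inhibitor Ro 20-1724 added with compounds to block cAMP breakdown; potency is the fitted concentration of half-maximal effect; nearly all actives have a fitted effect of over 60% in size; about a fifth of the inactives were tested at one dose only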
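Cells in DMEM/10% FBS with G418 were pretreated with compounds in DMSO plus […] (300 uM stock) for 30 min at 37C. cAMP was measured by HTRF (cAMP-d2 plus anti-cAMP antibody-K) after 30 min at room temperature.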
gsp antagonist – antagonizes gsp, the McCune-Albright syndrome mutation; gsp-mutant cells, cAMP HTRF, 30 min; control for the full effect not named in the record; Potency, µM (series often up to 76.9 µM), inactives show at the highest dose activity change, negative = inhibition, most hits filed as inhibitors; 0.4% of 340,000 active; active = falling curve of any shape with a large fitted effect; inconclusive = falling curve, mostly with a smaller effect; inactive = flat or rising curve; cell line not stated here;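 note: intracellular cAMP measured with PDE inhibitor Ro 20-1724 present during compound exposure; potency is the fitted concentration of half-maximal effect; % is set by controls: 0 for no effect and ±100 for the full control effect; nearly all actives have a fitted effect of over 65% in size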
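Measurement of cellular cAMP by homogeneous time-resolved fluorescence following a 30 min compound exposure at 37C. The PDE inhibitor […] was present throughout; the assay buffer was DPBS with 0.05% BSA and 0.005% Tween 20.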
ClpP mod – qHTS Assay for Activators of ClpP; ATP-dependent Clp protease proteolytic subunit (Bacillus subtilis (strain 168)), P80244; purified B. subtilis ClpP, FRET peptide cleavage, 20 min; Potency, µM (titrated, usually from 57.5 µM), for the others: at the top dose activity change, negative = active; 1.9% of 340,000 active; AID 651965, 2013; active = well fitted falling curve with a large enough effect; inconclusive = small, poorly fitted or top-dose-only effect; inactive = no such curve, though single readings can be large or run the other way; note: potency is the fitted concentration of half-maximal effect; the source files actives as falling curves though it sought activators and does not explain the sign; nearly all actives have a fitted effect of over 65% in size; many hits overshoot -100%
Target sequence (P80244 whole entry, looked up): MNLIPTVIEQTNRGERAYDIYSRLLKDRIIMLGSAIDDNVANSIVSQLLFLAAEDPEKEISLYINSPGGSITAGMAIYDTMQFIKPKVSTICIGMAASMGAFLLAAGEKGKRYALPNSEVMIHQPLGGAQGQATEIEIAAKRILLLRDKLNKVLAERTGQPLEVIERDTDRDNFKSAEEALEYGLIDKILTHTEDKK
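FRET quenching reversal measured ClpP activation: 10 microg/mL B. subtilis ClpP at pH 8 with the FRET-FV decapeptide, read at 430 nm after 320 nm excitation. The 20-min minus 0-min signal was scaled between DMSO/no-enzyme wells and ADEP (5.8 microM final).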
TRPML1 inh – human mucolipin-1 channel inhibition | Q9GZU1 | TRPML1-inducible cells, Ca2+ dye fluorescence, FDSS; hits give low values; inhibition of EC80 agonist-evoked calcium signal | activity change, negative = inhibition, % (test concentration not listed) | 0.02% of 390,000 active; in the data active means activity change below about -50%; inconclusive means about -30% to -50%; inactive means above about -30%;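 note: stimulus is agonist 54-4 at its EC80 concentration; % is set by controls: 0 for no effect and ±100 for the full control effect; compound concentration not given in the record; the text of the record puts the active cut at -80%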
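Calcium fluorescence in TRPML1-DL cells induced overnight with Tet: a 110 s read after compound pin addition, then a 110 s antagonist read after challenge with 54-4 at 4 uM final (EC80).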
TRPV1 PAM – human TRPV1 potentiation. Q8NER1. TRPV1-expressing cells, Fluo-8 calcium influx, capsaicin EC20 potentiation; host cell line not named in the record; control for the full effect not named in the record. potentiation, % at 8.33 µM. 0.02% of 320,000 active; active means potentiation above 80%; inconclusive means 30% to 80%; inactive means below 30%; note: 0% is about no effect
Target sequence (Q8NER1 whole entry, looked up): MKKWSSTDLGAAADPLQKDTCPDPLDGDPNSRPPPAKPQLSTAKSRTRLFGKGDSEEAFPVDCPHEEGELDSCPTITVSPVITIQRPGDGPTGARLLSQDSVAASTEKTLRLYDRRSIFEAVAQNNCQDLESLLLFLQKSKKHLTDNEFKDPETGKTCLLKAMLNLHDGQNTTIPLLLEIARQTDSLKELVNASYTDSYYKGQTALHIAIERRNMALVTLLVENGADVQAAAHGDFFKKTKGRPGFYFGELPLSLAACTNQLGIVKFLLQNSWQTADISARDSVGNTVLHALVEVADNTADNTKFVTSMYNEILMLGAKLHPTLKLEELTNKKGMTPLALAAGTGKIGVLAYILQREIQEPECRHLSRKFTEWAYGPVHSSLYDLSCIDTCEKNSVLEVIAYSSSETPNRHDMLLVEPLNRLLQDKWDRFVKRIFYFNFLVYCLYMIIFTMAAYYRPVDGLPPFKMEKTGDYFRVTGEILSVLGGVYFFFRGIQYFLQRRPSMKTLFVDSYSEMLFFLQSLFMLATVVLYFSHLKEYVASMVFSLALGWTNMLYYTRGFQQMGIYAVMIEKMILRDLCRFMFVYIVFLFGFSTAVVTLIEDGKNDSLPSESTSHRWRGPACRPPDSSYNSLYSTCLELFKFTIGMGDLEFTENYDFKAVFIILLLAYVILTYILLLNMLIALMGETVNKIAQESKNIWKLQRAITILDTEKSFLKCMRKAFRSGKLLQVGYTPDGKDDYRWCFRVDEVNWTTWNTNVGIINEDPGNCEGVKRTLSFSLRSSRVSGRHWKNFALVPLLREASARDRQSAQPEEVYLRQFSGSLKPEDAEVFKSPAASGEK
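Fluo-8 calcium influx in TRPV1-expressing cells, kinetic read (ex 480/em 520 nm). Compound added and read 3 min for agonist activity, followed by capsaicin at EC20 final and 2 min further read for enhancement.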
Sfp PPTase inh – inhibitors of Bacillus subtilis Sfp phosphopantetheinyl transferase. Q9F4F7. 3.5% of 310,000 active. Potency, µM, without a hit: max response, negative = inhibition, actives largely listed as inhibitors. Biochemical Sfp PPTase activity, qHTS; active = well fitted inhibition curve with a large enough effect; inconclusive = small, poorly fitted or top-dose-only effect, or another doubt; inactive = no such curve, though single readings can be large or run the other way;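 note: the enzyme is Sfp with the accession as filed and its product quenches rhodamine fluorescence; potency is the fitted concentration of half-maximal effect; 0% = enzyme reaction without inhibitor and -100% = no enzyme wells; top concentration of the series not given in the record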
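Reaction rates are the 30-min fluorescence difference (ex 525, em 598 nm) in wells containing 15 nM Sfp, 5 uM rhodamine-CoA and 12.5 uM BHQ-2-YbbR at pH 7.6 with 10 mM MgCl2.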
Numbers without * were called inactive; ? = inconclusive; . = no result given; & = joins results of further samples; [ ] = remark or other dose.

Below each compound – Menin-MLL FL inh, gsp agonist, gsp antagonist, ClpP mod, TRPML1 inh, TRPV1 PAM, Sfp PPTase inh
- Cc1cccc(NC(=O)CSc2nc(COc3ccccc3)nc3ccccc23)c1C
  -0.4, ?, 14%, -0.7%, -5, -6, -11%
- C/C(=N\NC(=S)NCc1ccccc1)c1ccc(Cl)s1
  -0.7, 11%[15.4 µM], -19%, 0.9%, -12, 1, 8%
- COc1cccc(NC(=O)c2cc(CN3C(=O)c4ccccc4C3=O)ccc2OC)c1
  -1.5, 28%, -13%, 10µM*, -7, 11, 7%
- Clc1ccccc1-c1nc2ccccc2c2nncn12
  0.5, 1%, 0%, -2.2%, 0, 2, 6%
- COc1ccc(C(=O)C(OC(=O)CNC(=O)c2ccco2)c2ccccc2)cc1 (configuration not stated)
  12, 6%, -5%, -1.8%, 41, ?, 79µM*
- CCN(C(=O)COC(=O)CSc1cc(C)c2ccccc2n1)c1ccccc1
  ., 5%[15.4 µM], -15%, 1.4%, -10, 2, .
- N#Cc1c(NC(=O)CSc2nnc(-c3ccco3)n2-c2ccccc2)sc2c1CCC2
  4.1, -14%, -3%, -4.1%, 0, 7, -20%
- Cc1nnc2c(Oc3ccccc3)nc3ccccc3n12
  -2.6, 27%, 6%, -3.0%, 4, 1, 7%
- Cc1nc2ccccc2c(=O)[nH]1
  2.4, -3%, 10%, 0.1%, 9, 0, 16%
- O=C(CCn1c(=O)c2ccccc2n(CC(=O)NC2CCCC2)c1=O)NCc1ccco1
  2.2, -12%, -11%, -3.6%, -11, 4, 2%
- O=C(N/N=C/c1ccc[nH]1)c1ccc(COc2cccc3cccnc23)cc1
  3.3, -9%[15.4 µM], -10%, ., -14, 0, 6%
- CCOC(=O)Cc1csc(NC(=O)CCCc2ccccc2)n1
  4.9, 4%, 0%, -1.7%, 13, -5, ?
- COc1ccc(C2CC(=O)c3c(O)cc(O)cc3O2)cc1O (configuration not stated)
  4.5, -2%, -8%, -1.5%, -2, ., 12%
- NC(=O)c1nsc(C(=O)N(CC(=O)NCc2ccc3c(c2)OCO3)C2CCCCC2)c1N
  3.8, 7%, 3%, -13%, 5&16, -2&-2, -3%
- COc1ccc(NC(=O)C2OC3OC(C)(C)OC3C3OC(C)(C)OC23)cc1 (configuration not stated)
  -5.8, 3%, 11%, -2.5%, -14, 10, 1%
- CCOC(=O)C(NC(C)=O)(Nc1ccc(S(=O)(=O)Nc2cc(C)nc(C)n2)cc1)C(F)(F)F (configuration not stated)
  -1.1, -16%, -10%, -0.2%, 4, 3, 21%
- Cc1cc(C)n2c3c(c(C#N)c2n1)CC(C)(C)OC3
  5.4, 18%, 0%, -17%, 3, 10, 18%
- COC(=O)c1ccccc1C(=O)N(c1ccccc1)c1ccccc1
  ., 2%[15.4 µM], -22%, -2.2%, 1, ., .
- COC(=O)CSc1nnc(-c2ccco2)n1-c1ccc(C)cc1
  1.6, 9%, -11%, -1.8%, 31, -5, 4%
- Cc1c(NC(=O)/C(C#N)=C/c2ccc(-c3ccc(Cl)cc3)o2)c(=O)n(-c2ccccc2)n1C
  5.4, 2%[15.4 µM], ?, 1.2%, -9, 18, ?
- COc1cc(OC)cc(C(=O)NNC(=O)c2cc(=O)[nH]c3ccccc23)c1
  ., 13%, 17%, -3.2%, 14, 7, .
- NC(=O)CC(NC(=O)Cc1cccc2ccccc12)c1ccc(NC2CCC2)c([N+](=O)[O-])c1 (configuration not stated)
  -2.6, ., -1%, 0.4%, 3, 22, ?
- COc1ccccc1C1OCC(C)([N+](=O)[O-])CO1 (configuration not stated)
  ., -2%, 3%, ., -2, ., .
- O=c1oc2ccccc2c(O)c1Sc1ccc(Cl)cc1
  ., ?, -12%, -23%, -10, ., .
- Nc1ncnc2c1ncn2C1CCC(CO)C(O)C1 (configuration not stated)
  2.4, 4%, 10%, -3.0%, -5, -31, 11%
- COc1cccc(-c2nnc(NC(=O)C3CCCCC3)o2)c1
  0.5, 6%, 2%, -18%, -2, 2, 19%
- COCCNC(=O)CSc1nnc(-c2ccccc2F)n1Cc1ccccc1
  -1.4, 13%[15.4 µM], -12%, ., 0, ?, 18%
- O=C(CSc1nc(-c2ccco2)cc(C(F)(F)F)n1)Nc1ccc2c(c1)OCO2
  4.8, -50%[inhibitor], 5%, -25%, 19, 8, -7%
- COc1ccc(NS(=O)(=O)c2ccc(OC)c(OC)c2)cc1OC
  -1.5, -3%, 0%, 0.3%, -1, -11, -3%
- Cc1sc2nc3c(SC(C)C(=O)O)cc(C(=O)c4ccccc4O)cn3c(=O)c2c1C (configuration not stated)
  ?, -1%, -15%, 0.7%, 33, ?, 50µM*
- COc1cccc(C2C(C(=O)/C=C/c3ccco3)=C(O)C(=O)N2CCN2CCOCC2)c1 (configuration not stated)
  ?, 15%, -6%, ., -9, 20, ?
- Cc1ccc(OCc2nnc(SCC(=O)N3c4ccccc4Sc4ccc(Cl)cc43)o2)cc1
  -0.2, -17%, -1%, -0.6%, 12, 6, -7%
- O=C(NCc1ccc(Cl)cc1)c1cc2c(nc3sccn32)s1
  4.6, ?, 19%, 32µM*, 18, -6, 50µM*
- O=C(CN1CCN(c2ccccc2)CC1)Nc1nccs1
  -1.2, 13%, 7%, 4.0%, 5, 0, 10%
- Clc1ccc(-c2nc3ncccn3c2Nc2ccc3c(c2)OCO3)cc1
  ?, -2%, -8%, 0.3%, -11, ., 0%
- Cc1ccc(SCC(=O)NNC(=O)c2ccc(S(C)(=O)=O)cc2)cc1
  ., -17%, 9%, ., -11, 1, 23%
- CC(CN1CCC(n2nccc2NC(=O)C2CCCC2)CC1)c1ccccc1 (configuration not stated)
  -8.0, 5%, 0%, -2.9%, 3, -13, 5%
- CCOc1ccc(C(C)=O)cc1CSc1nnc(N)s1
  -4.4, -1%[15.4 µM], 1%, -0.1%, -2, 4, 19%
- C=CCc1ccccc1OCC(O)CN1C(=O)c2ccccc2C1=O (configuration not stated)
  2.8, 15%[15.4 µM], -10%, -0.7%, -15, -9, 4%
- Clc1ccccc1Nc1ncnc2c1nnn2Cc1ccccc1
  -4.4, 4%, 2%, -17%, 0, -5, 0%
- Oc1ccc(CNc2ccc(F)cc2)c2cccnc12
  2.3, -24%, -6%, -2.2%, -8, -1, 8%
- COc1ccc(Cl)cc1NC(=O)C1CC(=O)N(c2ccc(F)cc2)C1 (configuration not stated)
  3.3, 8%, -1%, -1.1%, 12, -6, 8%
- Cc1ccc(/C=C/C(=O)OCC(=O)Nc2cccnc2Cl)cc1
  ., -48%[inhibitor], 6%, -0.8%, -13, -12, .
- O=C1CN(S(=O)(=O)c2ccc([N+](=O)[O-])cc2)CC(=O)N1
  7.1, ?, -3%, ., 3, 8, 6%
- COc1cc(/C=N/NC(=O)CN2CCCCC2)ccc1OCc1ccccc1
  -1.8, 22%, -7%, -3.3%, 19, -4, -10%
- COc1cc(CNc2ncc(-c3ccc(Cl)cc3)n2C)cc(OC)c1OC
  -11, -5%, -1%, ?, 1, 3, -21%
- CCn1c(CNC(=O)c2ccc(OC)cc2)nnc1SC
  3.8, -98%, 9%, 1.6%, 4, 4, 3%
- CSc1cccc(NC(=O)CCC(=O)O)c1
  5.9, 12%[15.4 µM], 18%, -0.4%, -7, 1, 14%
- O=S(=O)([N-]c1nc2ccccc2nc1-n1cc[n+](Cc2ccccc2)c1)c1ccccc1
  -0.5, -3%[15.4 µM], -17%, ., -4, 15, -2%
- CCN(C(=O)COC(=O)c1ccc2[nH]c3c(c2c1)CCCC3)C1CCS(=O)(=O)C1 (configuration not stated)
  0.3, -2%[15.4 µM], ., ., 11, 2, 9%
- Cc1ccc(C(=O)NCCc2nnc3ccc(SCC(=O)Nc4nnc(C)s4)nn23)cc1
  ., ?, ., 4.3%, 1, ., .
- COCCCNC(=S)NNC(=O)Cn1nc(C)c(Br)c1C
  0.7, -1%, 4%, -1.5%, 1, -21, 13%
- C#CCOCCOCCOCCNc1nc(N2CCN(C(=O)C(Cc3ccc(O)cc3)n3cc(C(N)CC(C)C)nn3)CC2)nc(N2CCN(C(=O)C(Cc3ccc(O)cc3)n3cc(C(N)C(C)CC)nn3)CC2)n1 (configuration not stated)
  -1.1, ., 4%, -1.6%, 2, -16, -1%
- O=C(Nc1ccon1)C(Sc1ccccc1)c1ccccc1 (configuration not stated)
  1.7, 5%, -2%, -1.8%, 7, 18, 6%
- Cc1ccc2c(C)c(C(=O)Nc3ccc(S(N)(=O)=O)cc3)oc2c1C
  0.7, 7%, 7%, ., -3, -4, 3%
- ONC=Nc1cccc2nonc12
  3.2, 2%, -5%, 0.4%, -12, 20, 9%
- O=C(NCC(=O)N(Cc1ccco1)C(C(=O)NC1CCCCC1)c1cccnc1)c1cccs1 (configuration not stated)
  0.7, -27%, 5%, 0.7%, -6, 4, 12%
- CCn1ccc(C(=O)N2CCN(c3ncccn3)CC2)n1
  ., -5%, 11%, -13%, 21, 17, 5%
- Nc1ccc(C(=O)Nc2cccc3ncccc23)cc1
  -4.2, 22%, 1%, -4.1%, 21, -3, 9%
- Cc1cccc(C(=O)NNC(=O)c2c(-c3ccccc3Cl)noc2C)c1O
  ., 17%, -15%, ., 2, 1, 26%

Continuation.
Below each compound – Menin-MLL FL inh, gsp agonist, gsp antagonist, ClpP mod, TRPML1 inh, TRPV1 PAM, Sfp PPTase inh
- CCn1c(SCC(=O)Nc2ccc(OC)c(OC)c2)nnc1-c1c[nH]c2ccccc12
  1.9, -24%, -6%, -1.6%, 3, ?, 1%
- CCCOc1ccc(Cc2nc(N)nc(N)n2)cc1
  1.9, 1%, 9%, -0.5%, 2, -15, 11%
- CCCN(N=Nc1cccc([N+](=O)[O-])c1)c1cccc([N+](=O)[O-])c1
  3.6, 9%, -10%, -2.0%, 27, 1, 5%
- O=C(N/C(=C/c1ccccc1F)C(=O)N1CCCCC1)c1ccccc1
  0.3, 8%[15.4 µM], ., ., 17, 12, 9%
- COc1ccccc1NS(=O)(=O)c1cc(C(=O)Nc2ccc(S(=O)(=O)Nc3onc(C)c3C)cc2)ccc1C
  ., -9%, 2%, 1.3%, 8, ., .

From PubChem BioAssay

Rows are unselected; 4.9% or so of the library scored in one or more.
